KCNQ2 block: KCNQ2 potassium channel inhibitors, primary screen, cell-based, CHO-K1, FluxOR thallium flux, B-score (AID 2156). 310,000 tested, 1.1% active. B-score at 10 µM. 20 min; active compounds read low; only compounds with negative scores are shown here; some inactives read as strong as hits. Potassium voltage-gated channel subfamily KQT member 2 (Rattus norvegicus), O88943;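 active = fluorescence ratio B-score at most minus 3 library SDs, with starting brightness B-score within 2 library SDs, cut at about -5.5 in these data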
Target sequence (O88943 whole entry, looked up): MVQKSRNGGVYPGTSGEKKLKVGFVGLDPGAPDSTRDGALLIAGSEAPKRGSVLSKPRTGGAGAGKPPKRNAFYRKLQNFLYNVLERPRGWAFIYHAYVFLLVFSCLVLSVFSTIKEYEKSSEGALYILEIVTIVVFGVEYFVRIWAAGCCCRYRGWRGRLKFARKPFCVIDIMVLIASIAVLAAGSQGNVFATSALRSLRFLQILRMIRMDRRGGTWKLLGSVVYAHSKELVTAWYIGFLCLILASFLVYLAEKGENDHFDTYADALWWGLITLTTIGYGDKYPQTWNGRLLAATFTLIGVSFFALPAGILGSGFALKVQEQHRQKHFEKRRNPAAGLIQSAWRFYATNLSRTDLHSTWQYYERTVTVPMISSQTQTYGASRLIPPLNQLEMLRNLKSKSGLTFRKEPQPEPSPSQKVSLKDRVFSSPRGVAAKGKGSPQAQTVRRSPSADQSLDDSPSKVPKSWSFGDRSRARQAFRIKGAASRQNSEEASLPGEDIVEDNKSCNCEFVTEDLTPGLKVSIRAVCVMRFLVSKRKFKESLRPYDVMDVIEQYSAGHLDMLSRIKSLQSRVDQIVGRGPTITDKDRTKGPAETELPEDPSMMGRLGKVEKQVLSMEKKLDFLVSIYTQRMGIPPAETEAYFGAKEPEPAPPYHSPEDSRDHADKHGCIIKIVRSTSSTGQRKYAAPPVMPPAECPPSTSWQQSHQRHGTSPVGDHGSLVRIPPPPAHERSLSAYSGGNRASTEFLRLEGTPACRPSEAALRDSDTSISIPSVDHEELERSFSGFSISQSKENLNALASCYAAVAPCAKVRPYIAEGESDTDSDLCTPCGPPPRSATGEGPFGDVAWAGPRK
KCNQ2 block baseline: recorded beside KCNQ2 block, whose call it bears; B-score; measured here: initial fluorescence intensity artifact check;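 brightness before thallium and not channel activity; 0 = typical well and far values either way flag optical interference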
Active calls of the source: *; i = inactive. This is a subset; the hit share may differ from the screen's.

SMILES	KCNQ2 block	KCNQ2 block baseline
Cc1nn(Cc2ccc([N+](=O)[O-])cc2)c(=O)n1-c1cccc(F)c1	i	0.08
Cc1c(C(=O)NC(C)CN2CCCCC2)oc2ccccc12 (stereo unspecified)	i	1.1
O=C(c1ccc(OC2CCN(CCc3ccccc3)CC2)cc1)N1CCC[C@H]1CO	i	-0.41
S=C(NCc1cccs1)Nc1cc(Cl)cc(Cl)c1	i	-0.39
COc1ccc(NC(=O)C(Sc2nnc3ccccn23)c2ccccc2)cc1Cl (stereo unspecified)	i	0.35
Cc1ccccc1S(=O)(=O)Nc1nc2ccccc2nc1Cl	i	0.09
CCOC(=O)/C(=C\c1cn(C)c2ccccc12)[N+](=O)[O-]	i	-0.37
C=CCN1C2=NCCCN2c2ccccc21	i	1
CC(=O)c1ccc(S(=O)(=O)NC2CC(=O)N(c3ccc(C)c(C)c3)C2)cc1 (stereo unspecified)	i	1.1
CCOc1ccc2[nH]c(C)cc(=O)c2c1	i	1.1
C=CCOc1ccc(-c2nc3c(c(=O)[nH]c(=O)n3Cc3ccccc3)n2CCCOC)cc1	i	-0.04
CC(c1ccccc1)C1CC(=O)N(C2CCCCC2)C1=O (stereo unspecified)	i	-0.2
Cn1c(=O)c2c(nc(SC3C(=O)CC(C)(C)CC3=O)n2C)n(C)c1=O	i	0.36
Cc1cccnc1NC(=O)CNC(=O)C12CC3CC(CC(Cl)(C3)C1)C2	i	-0.39
O=C(CC1C(=O)NCCN1CCCc1ccccc1)NCCc1ccccc1Cl (stereo unspecified)	i	2.2

Reprinted from the part before: 2 compounds, then new ones.
SMILES	KCNQ2 block	KCNQ2 block baseline
Cc1cccnc1NC(=O)CNC(=O)C12CC3CC(CC(Cl)(C3)C1)C2	i	-0.39
O=C(CC1C(=O)NCCN1CCCc1ccccc1)NCCc1ccccc1Cl (stereo unspecified)	i	2.2
COc1cccc(C(=O)n2c(SC)nc3cc4c(cc32)OCCO4)c1	i	-0.21
CN(C)CCn1c(=S)[nH]c2ncccc2c1=O	i	4.2
COc1ccc(C(=O)Oc2ccc(/C=N/NC(=O)Cc3ccc([N+](=O)[O-])cc3)cc2)cc1	i	0.33
CCc1nnc(SCC(=O)N2CCCc3ccccc32)nc1CC	i	-0.55
O=C(c1ccc([N+](=O)[O-])cc1)N1CCc2ccccc21	i	-0.69
O=C(NCCN1C(=O)S/C(=C\c2ccc(F)cc2)C1=O)c1cccc(S(=O)(=O)N2CCOCC2)c1	i	2.2
CN(CCN(C)C(C)(C)C)C(=O)C(c1ccccc1)c1ccccc1	i	-0.29
CCOc1ccc(CN2CCC(=O)NC2=O)cc1	i	0.3
CN(C)CCCNCC(=O)Nc1ccccc1N1CCOCC1	i	0.63
Cc1ccc(C(CC(=O)N2CCNCC2)c2ccccc2)c(O)c1C (stereo unspecified)	i	0.73
COc1ccccc1C(=O)COC(=O)C1CCN(S(=O)(=O)c2ccc(C)c(C)c2)CC1	i	0.79
COCCNC(=O)CN(c1cc(C(F)(F)F)ccc1Cl)S(C)(=O)=O	i	-0.13
CCN(c1ccccc1)S(=O)(=O)c1cccc(C(=O)Nc2ccc(C)cn2)c1	i	1.2
CSC1=N/C(=C\c2ccccc2C)C(=O)S1	i	1.5
COc1ccccc1-c1ccc(SCc2ccccc2F)nn1	i	-1.4
Clc1ccc(-c2csc(N3CCC(c4ccccc4)C3)n2)cc1 (stereo unspecified)	i	-0.44
O=C(O)c1cccnc1SCc1ccccc1Cl	i	0.94
Cc1cccc(CCN(C(=O)Cc2cccs2)C(C(=O)NC2CCCCC2)c2cccnc2)c1 (stereo unspecified)	i	1.6
Cc1cc(Cl)c(S(N)(=O)=O)cc1OCC(N)=O	i	-0.06
CC(=O)c1c(C)[nH]c(C(=O)NCc2cccs2)c1C	i	-0.28
O=C(NC1CCCC1)C(NS(=O)(=O)c1cccc2nsnc12)c1ccccc1 (stereo unspecified)	i	1.3
COc1cc(C(=O)OCC(=O)Nc2c(F)c(F)c(F)c(F)c2F)cc(OC)c1OC	i	1.3
CCCOc1ccc(C(=O)NNC(=S)NC(=O)c2cccs2)cc1	i	1.3
FC(F)(F)c1ccc(Cl)c(NC2=NCCCCC2)c1	i	-0.04
COc1ccc(N2Cc3cccc(C(=O)N4CCOCC4)c3C2=O)cc1	i	-0.76
Cc1c(Br)c(C(F)(F)F)nn1CC(=O)NCCN1CCOCC1	i	0.04
Cc1onc(-c2c(F)cccc2Cl)c1C(=O)NCCc1ccc(S(N)(=O)=O)cc1	i	0.1
O=C(c1ccccc1)N1CCN(C(=O)C23CC4CC(CC(C4)C2)C3)CC1	i	-0.02
Cc1cc(NC(=S)Nc2ccc(C)c(Cl)c2)n[nH]1	i	0.03
CN(C)c1nnnn1-c1cccc(Oc2ncc(C(F)(F)F)cc2Cl)c1	i	1.3
Cc1cc(N/N=C/c2ccc(N(C)C)cc2)nc(NCc2ccccc2)n1	i	-0.01
CCc1ccc(S(=O)(=O)NCc2csc(C)n2)cc1	i	0.92
Cc1ccn2c(NC(=O)c3ccco3)c(-c3ccccc3)nc2c1	i	1.9
Cc1cc(C)cc(N(CC(=O)N2CCn3c2nc2ccccc23)S(=O)(=O)c2c(C)noc2C)c1	i	0.51
Cc1ccc(-n2ncc3c(=O)n(CC(=O)NCc4ccco4)cnc32)cc1C	i	-1.3
COc1ccc(OC)c(-c2cc(C(=O)Nc3cccc(Cl)c3)no2)c1	-7.5*	-1.4*
CCc1ccc(-c2cc(C)no2)cc1S(=O)(=O)Nc1cc(C)on1	i	-1.9
Cc1cc(NC(=O)C2C3C=CC(C3)C2C(=O)O)no1 (stereo unspecified)	i	0.17
O=C(Nc1ccc2[nH]ncc2c1)c1ccccc1	i	-1.5
COc1ccccc1NC(=O)N(Cc1cc2cc(OC)c(OC)cc2[nH]c1=O)CC1CCCO1 (stereo unspecified)	i	-1.3
CC(C)c1ccc(/C=C(\NC(=O)c2ccccc2)C(=O)NCCN2CCOCC2)cc1	i	-0.94
CCOC(=O)C(Cc1ccccc1)NC(=O)CCc1nnc2ccc(N3CCCC3)nn12 (stereo unspecified)	i	-0.27
O=C(c1ccc(NS(=O)(=O)c2cccs2)cc1)N1CCOCC1	i	1.4
Cc1ccc(N2C(=O)N(CC(=O)NCc3ccc(Cl)cc3)C(=O)C2C)cc1 (stereo unspecified)	i	-1.6
COc1cccc(C(=O)N=c2sc3c(C)ccc(OC)c3n2C)c1	i	1.1
CC1(C)Cc2c(c(=S)nc(-c3ccccc3)n2Cc2cccnc2)CO1	i	0.03
CCC(CC)NC(=O)CCc1nc2ccccc2c(=O)[nH]1	i	2.9
CCOC(=O)CCN(Cc1ccccc1)S(=O)(=O)c1csc(C(N)=O)c1	i	-0.68
COc1cc(CN(C)C(C)C(=O)Nc2ccc([N+](=O)[O-])cc2Cl)ccc1OC(F)F (stereo unspecified)	i	-0.75
COc1cc(C(=O)NCc2ncccc2C)ccc1OC1CCN(C(C)=O)CC1	i	0.43
CSc1ncccc1C(=O)NCc1ccccc1Cl	i	-0.76
O=C(NCCOC12CC3CC(CC(C3)C1)C2)c1cccc(Br)c1	-7.2*	-0.82*
Cc1ccc2nsnc2c1NC(=O)c1cncc(Br)c1	i	-0.36
CC1CCN(C(=O)N2c3ccccc3Sc3ccccc32)CC1	i	-1.7
CC(C)C[C@@H](CO)N1CCN(Cc2ccc(Br)cc2)CCC1=O	i	0.41
O=S(=O)(Nc1cccc2ccccc12)c1ccccc1F	i	3.1
Cc1ccc(CCC(=O)Nc2ccc(C#N)cc2)o1	i	-0.04
N#CCn1nnc(-c2ccc3c(c2)OCO3)n1	i	-3.9
Cc1cccc(NC(=O)[C@H](Cc2ccccc2)NC(=O)[C@@H]2Cc3ccccc3CN2)c1	i	-1.1
O=C(Cc1ccc(F)cc1)Nc1nc(-c2ccc(F)cc2)cs1	i	-0.29
(next part)
SMILES	KCNQ2 block	KCNQ2 block baseline
COC(=O)C1=C(C)Nc2nnnn2C1c1ccco1 (stereo unspecified)	i	0.49
COC(=O)c1cc(NC(=O)C2COc3ccccc3O2)ccc1Cl (stereo unspecified)	i	-1.1
CCn1c(CC(=O)Nc2ccccc2OC)nnc1SCC(=O)Nc1ccccc1F	i	1.2
CCc1ccc(S(=O)(=O)Nc2cccc(C3OCCCO3)c2)cc1	i	2.6
CCOc1ccc(N2C(=O)c3ccc(C(=O)OCc4c(C)noc4C)cc3C2=O)cc1	i	-1.1
Cc1cc(=O)[nH]c(SCC(=O)Nc2cc(S(=O)(=O)N3CCCC3)ccc2Cl)n1	i	0.12
CCN(CC)S(=O)(=O)c1ccc(N2CCOCC2)c(NC(=O)c2ccc3ccccc3c2)c1	i	0.03
O=C(CSc1nc2ccccc2[nH]1)N/N=C/C=C\c1ccccc1[N+](=O)[O-]	i	-1.6
O=C(O)C1CCCCC1C(=O)NC1CCCCC1 (stereo unspecified)	i	1.4
Cn1c(NC(=O)c2ccc(F)c(F)c2)cc(=O)n(C)c1=O	i	1
Cc1cnc(NC(=O)CCc2ccccc2)s1	i	2
COc1ccc(S(=O)(=O)N2CCCCCC2)cc1C(=O)N(C)Cc1ccc(Cl)cc1Cl	-8.5*	0.9*
CCOc1ccccc1OCCCC(=O)Nc1sccc1C(N)=O	i	0.36
COc1ccccc1NCC(=O)N/N=C/c1sccc1C	i	0.78
COc1ccc(C(=O)Nc2ccccc2Cc2ccccc2)c(OC)c1	i	-0.16
COc1cc(/C=N/NC(=O)c2ccccn2)cc2c1OCO2	i	0.26
CCc1ccc2[nH]c(=O)c(C(c3nnnn3Cc3ccccc3)N3CCOCC3)cc2c1 (stereo unspecified)	i	0.23
CCn1ncc2c(OCc3ccc(C#N)cc3)cc(C)nc21	i	0.04
CC(=O)c1cc(CN2CCN(Cc3ccccc3)C(CCO)C2)cs1 (stereo unspecified)	i	-0.2
CS(=O)(=O)N1CCN(c2ccccc2NC(=O)CSc2nnc(-c3ccco3)o2)CC1	i	-1.8
O=C(CNC(=O)c1ccc(F)cc1)N/N=C/c1cc(Br)ccc1OC(=O)/C=C/c1ccco1	i	3
CCOC(=O)Cn1c(CN2CCOCC2)nc2c1c(=O)[nH]c(=O)n2C	i	0.58
CCn1nnnc1SCC(=O)N1c2ccccc2CCc2ccccc21	i	-0.06
Cc1c(C)c2c(OCC(=O)NCC(O)c3ccccc3)cc3c(c2oc1=O)CCC(C)(C)O3 (stereo unspecified)	i	0.16
COc1ccc(C2C=C(c3ccc(C)cc3)Nc3ncnn32)cc1 (stereo unspecified)	i	4.8
COc1ccccc1CNC(=O)C1CCC(CNS(=O)(=O)c2cccc3cccnc23)CC1 (stereo unspecified)	i	0.79
O=C(N=Nc1c(O)[nH]c2ccccc12)c1cccc(S(=O)(=O)Nc2ccccc2Cl)c1	i	0.43
O=C1CC(N2CCN(c3ccccc3Cl)CC2)C(=O)N1c1ccc(F)cc1 (stereo unspecified)	i	0.55
C=CCn1c(SCCNC(C)=O)nc2cc(-c3ccccc3)sc2c1=O	i	1
CC1(C)CC(=O)C(N=Nc2ccc(F)cc2)=C(O)C1	i	-0.15

Entries of single compounds as entered above.
Results for CC1(C)CC(=O)C(N=Nc2ccc(F)cc2)=C(O)C1 = KCNQ2 block = i; KCNQ2 block baseline = -0.15
Results for COc1ccc(C2C=C(c3ccc(C)cc3)Nc3ncnn32)cc1 (stereo unspecified) = KCNQ2 block = i; KCNQ2 block baseline = 4.8
Results for CCn1nnnc1SCC(=O)N1c2ccccc2CCc2ccccc21 = KCNQ2 block = i; KCNQ2 block baseline = -0.06

Following part
SMILES	KCNQ2 block	KCNQ2 block baseline
Cc1cc(Cl)c(OCCN2C(=O)NC(C)(C)C2=O)c(Br)c1	i	0.72
O=C(C1CCCCC1)N1CCc2ccccc21	i	1.1
O=C(OCC(=O)N1CCOCC1)c1ccccc1O	i	1.3
CCn1c(=O)c2c(nc(SCC(=O)NCC3CCCO3)n2C)n(C)c1=O (stereo unspecified)	i	0.03
COc1ccccc1NC(=O)c1ccccc1-c1ccccc1C(=O)O	i	-0.19
Cc1cc(-c2c(C)[nH]n(-c3ccccc3)c2=O)n(-c2ccccc2)n1	i	-1.4
COc1cc(C)c(C)cc1S(=O)(=O)NC1CC(C)(C)NC(C)(C)C1	i	2.2
Cc1ccc(C(=O)CSc2nnc(COc3cccc4cccnc34)o2)cc1	i	0.58
CCOC(=O)C1(Cc2cccc(OC)c2)CCCN(C(=O)c2ccc(OC)o2)C1 (stereo unspecified)	i	0.41
O=C(CSCC(=O)NC1CC1)Nc1ccccc1	i	-1.7
CC1CN=C(N(C(=O)Nc2ccccc2)C(C)C)S1 (stereo unspecified)	i	0.93
CC(C)(C)NC(=O)NC(=O)COC(=O)C1c2ccccc2Oc2ccccc21	i	1.4
O=C(NCc1ccccc1)N1CCN(CCO)CC1	i	1.4
NC(=O)CSc1nnnn1-c1ccccc1Cl	i	1.6
COc1ccc(Br)cc1CNC(=O)c1ccc2c(c1)N(C)CCS2	-6.4*	-0.26*
COc1ccccc1CNC(=O)c1cc2c(s1)CS(=O)(=O)C2	i	-1.5
Cc1cc(C)c2c(-n3cccc3)c(NC(=O)OCc3ccccc3)sc2n1	i	0.09

A second format for part of the listing above.
mol,KCNQ2 block,KCNQ2 block baseline
CC(C)(C)NC(=O)NC(=O)COC(=O)C1c2ccccc2Oc2ccccc21,i,1.4
O=C(NCc1ccccc1)N1CCN(CCO)CC1,i,1.4
NC(=O)CSc1nnnn1-c1ccccc1Cl,i,1.6
COc1ccc(Br)cc1CNC(=O)c1ccc2c(c1)N(C)CCS2,-6.4*,-0.26*
COc1ccccc1CNC(=O)c1cc2c(s1)CS(=O)(=O)C2,i,-1.5

Bioassay records deposited in PubChem BioAssay by Johns Hopkins Ion Channel Center.
